Assay outcomes from PubChem BioAssay.
Calb FLC = C. albicans growth inhibition with fluconazole, primary screen, CaCi-2 strain, Alamar Blue fluorescence. C. albicans CaCi-2 (fluconazole-resistant clinical isolate) + fluconazole, 48 h. growth inhibition, % (test concentration not listed). hit rate 0.57% among 300,000. AID 1979, 2009;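 active means most replicates above 75%; inconclusive means exactly half above 75%; inactive means most below 75%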;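 further: all wells also contain fluconazole at 8 µg/ml as a sub-toxic cotreatment; 0% = median of DMSO wells and 100% = median of geldanamycin control wells; wells of about 8 µL received 7.5 nL stock; the first replicate is given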
Beta cell apopt = inhibitors of cytokine-induced beta cell apoptosis, primary screen, luminescence; INS-1E cytokine-induced death, ATP luminescence, 48 h; percent of positive-control rescue, neutral wells zero; hit rate 0.8% among 300,000; protection from apoptosis, % (test concentration not listed); AID 435005, 2010;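 active means all replicates at 75% or more, or half of them and the mean; inconclusive means half reach 75% but not the mean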;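 further: 0% = cytokine-treated negative control wells and 100% = positive control rescue; higher means more ATP so stronger rescue from cytokine killing; wells of about 40 µL received 100 nL stock; the first replicate is given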
ALR inh = inhibitors of human ALR sulfhydryl oxidase, primary screen, biochemical, H2O2 detection, HRP-luminol luminescence, single point; purified ALR, DTT oxidation; hit rate 3.8% among 290,000; inhibition, % (concentration not given with the values); AID 485317, 2010;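 active means mean and each replicate at 75% or more; inconclusive means only one of the two met; inactive means neither met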;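 further: stock transfer was 7.5 nL into about 7.5 µL; 0% = neutral wells and 100% = wells with inactivated enzyme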
T cruzi repl = inhibitors of intracellular T. cruzi growth, primary screen, luminescence, NIH3T3 host cells | AID 1885, 2009 | T. cruzi beta-gal in NIH3T3, 90 h | hit rate 1.4% among 300,000 | inhibition, % (concentration not given with the values);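 active means mean inhibition across valid replicates above about 55%, limit read from the data; inconclusive means mean below that limit but half or more replicates reach it; inactive means mean below it, under half of replicates reach it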;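 further: signal also drops with host cell toxicity which is not excluded here; 0% = plate median of DMSO wells and 100% = zero luminescence signal; higher percent means less beta-gal luminescence so fewer parasites; stock transfer was 50 nL into about 50 µL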
Ecoli rRNA inh = reduced GFP signal of wild-type E. coli, primary screen, bacterial rRNA inhibitor project, GFP/RFP fluorescence, OD600, single point; E. coli WT GFP vs humanized-ribosome RFP mutants, 24 h; stronger effect = lower value; DMSO median 0, no signal -100; GFP signal change (wild-type ribosome), % (test concentration not listed); hit rate 1.6% among 350,000; AID 720706, 2013;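 active means significant combined selectivity score with lowered wild-type GFP, culture density cut under 30%, mutant RFP and density less affected; inactive means any of these conditions unmet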; further: one replicate is shown; some compounds called inactive have numbers as strong as hits
LANA-H2A inh = blockers of LANA interaction with H2A/H2B – biochemical, FP readout, HTS, primary screen; Protein LANA1 (Human herpesvirus 8 type P (isolate GK18)), Q9QR71; cell-free LANA-H2A/H2B peptide, fluorescence polarization; inhibition, % (no concentration beside the values); hit rate 0.6% among 320,000; AID 2629, 2010; in the data active means inhibition mostly above about 10%, no sharp cut-off; inactive means mostly below about 6.7%;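 further: stock transfer was 7.5 nL into about 10 µL; 0% = median of vehicle wells and 100% = median of positive control wells; one replicate is shown; the record names a cut of 25% in any replicate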
Target sequence (Q9QR71 whole entry, looked up): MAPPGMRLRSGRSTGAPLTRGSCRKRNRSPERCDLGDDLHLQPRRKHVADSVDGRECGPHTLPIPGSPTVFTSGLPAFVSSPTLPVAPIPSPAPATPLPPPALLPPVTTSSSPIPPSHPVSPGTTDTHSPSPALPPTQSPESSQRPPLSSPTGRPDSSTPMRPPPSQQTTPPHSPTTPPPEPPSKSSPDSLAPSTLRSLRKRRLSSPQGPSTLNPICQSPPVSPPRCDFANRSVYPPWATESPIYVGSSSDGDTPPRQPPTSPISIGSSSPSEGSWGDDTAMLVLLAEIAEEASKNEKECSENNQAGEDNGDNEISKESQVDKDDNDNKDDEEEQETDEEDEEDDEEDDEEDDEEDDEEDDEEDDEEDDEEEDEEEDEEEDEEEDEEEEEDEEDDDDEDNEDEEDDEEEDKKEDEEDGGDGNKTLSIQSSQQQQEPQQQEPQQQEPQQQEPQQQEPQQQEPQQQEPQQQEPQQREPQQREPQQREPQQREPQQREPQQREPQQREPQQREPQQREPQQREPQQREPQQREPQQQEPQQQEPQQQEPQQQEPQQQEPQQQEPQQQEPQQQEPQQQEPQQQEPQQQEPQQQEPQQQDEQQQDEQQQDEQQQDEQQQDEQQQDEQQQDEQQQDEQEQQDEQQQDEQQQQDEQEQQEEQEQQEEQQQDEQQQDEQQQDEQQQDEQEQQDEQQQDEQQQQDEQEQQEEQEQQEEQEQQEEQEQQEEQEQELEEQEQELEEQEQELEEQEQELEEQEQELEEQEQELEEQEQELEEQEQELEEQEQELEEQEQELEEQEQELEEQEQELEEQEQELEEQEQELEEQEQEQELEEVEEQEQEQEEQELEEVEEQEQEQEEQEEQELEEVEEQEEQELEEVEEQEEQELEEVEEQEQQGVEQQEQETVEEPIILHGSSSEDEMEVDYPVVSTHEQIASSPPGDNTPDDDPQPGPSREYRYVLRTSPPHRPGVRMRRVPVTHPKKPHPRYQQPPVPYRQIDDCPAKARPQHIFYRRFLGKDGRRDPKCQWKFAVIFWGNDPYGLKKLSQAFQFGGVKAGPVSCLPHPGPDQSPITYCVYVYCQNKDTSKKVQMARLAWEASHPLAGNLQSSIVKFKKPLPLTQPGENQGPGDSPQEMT
Beta2AR agonist = beta2AR agonists driving receptor internalization, primary screen, cell-based, FAP fluorogen, flow cytometry | hit rate 0.43% among 340,000 | Am2.2-beta2AR cells; reference of the scale not given here | response, % (concentration not given with the values);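 active means response above a set limit, near 3 SD of response in nonfluorescent compounds, cut at about 42% in these data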;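 further: stock transfer was 100 nL into about 11 µL; a reference agonist was the positive control; negative values mostly stem from fluorescent compounds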
Bfl-1 A1 inh = caspase 3/7 activation in MEF A1-2A-BIM cells, primary screen, A1 inhibitor project, cell-based, luminescence, HTS; Caspase-Glo 3/7 luminescence, 3 h; percent of clofoctol response, vehicle zero; caspase activation, % (no concentration beside the values); hit rate 0.066% among 330,000;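 active means over half of replicate activation scores above 10%, or exactly half above 10 with the replicate mean above 10; inconclusive means replicate mean below 10 yet half the replicates above 10; inactive means over half of replicates below 10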;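 further: wells of about 30 µL received 50 nL stock; many hits fall short of the cut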
Ecoli rRNA inh OD600 = further read-out of Ecoli rRNA inh, marked with its call; OD600 change, %; measured here: OD600 growth;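 optical density of the mix in the first replicate; 0 = DMSO median and -100 = no signal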
Ecoli rRNA inh RFP = recorded beside Ecoli rRNA inh, whose call it bears; RFP signal change, %; measured here: RFP humanized mutant strains;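 first replicate; 0 = DMSO median and -100 = no signal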
* marks the source's active call; other numbers are inactive results; ? = inconclusive; / = not tested or not shown. A portion of the library (hit frequency here may not be typical).

SMILES	Calb FLC	Beta cell apopt	ALR inh	T cruzi repl	Ecoli rRNA inh	Ecoli rRNA inh OD600	Ecoli rRNA inh RFP	LANA-H2A inh	Beta2AR agonist	Bfl-1 A1 inh
Cc1[nH]c(C)c(S(=O)(=O)Nc2ccc(OC(F)(F)F)cc2)c1C(=O)N1CCCCC1	9	1	1	23	5	-1	0.8	10	9	0.2
Cc1cccn2c(=O)c3cc(C(=O)NCc4ccc(F)cc4)c(=N)n(CC4CCCO4)c3nc12 (configuration not stated)	15	10	-17	31	5	6	6.8	2.7	5	-0.6
COc1cccc2cc(C(C)OC(=O)Nc3ccc(C)cc3)oc12 (configuration not stated)	-22	2	-8	24	-1	-6	3.2	-2.6	-1	-0.8
O=c1cc(-c2ccsc2)oc2ccccc12	/	-11	-5	/	-18	-24	-7.1	2.0	-6	-3.8
CN(NC(=O)c1ccc(Cl)cc1Cl)C1=NS(=O)(=O)c2ccccc21	-5	-3	/	-5	3	10	-3.9	7.2	-9	-0.1
COc1cccc(-c2cc(C(=O)Nc3cc(C)n(Cc4ccc(Cl)cc4)n3)no2)c1	-3	3	-4	-18	-9	25	6.0	2.2	-4	-1.4
COc1ccc(Cl)cc1N1Cc2ccccc2C1	-17	-10	-3	15	/	/	/	-4.7	7	-0.6
COc1ccccc1-c1nc(C#N)c(N2CC(C)CC(C)C2)o1 (configuration not stated)	9	2	4	1	0	-4	-1.4	3.2	-1	0.1
C/C(CC(=O)Nc1ccc(N(C)C)cc1)=N\NC(=O)C(=O)NCc1ccccc1	-3	6	70	1	6	0	2.3	-1.4	3	0.0
Cc1ccc(C2Cc3cc(O)c(O)cc3CN2)cc1 (configuration not stated)	-20	/	99*	35	-12	-2	-0.9	-2.6	-5	0.9
O=C1CC(N2CCN(Cc3ccccc3)CC2)C(=O)N1c1ccccc1 (configuration not stated)	-8	0	-13	-4	/	/	/	3.3	-1	0.4
Cc1ccc(-c2csc3ncn(-n4c(C)ccc4C)c(=O)c23)o1	-5	-3	4	3	/	/	/	-0.9	5	-0.4
COc1cc(/C=N/NC(=O)c2cccc(C)c2)ccc1OCC(=O)Nc1ccccc1	-2	-3	-13	-6	-22	-22	-0.3	-3.3	10	-0.9
COc1cc(C2/C(=C(\O)c3ccc4c(c3)OCCO4)C(=O)C(=O)N2CCN2CCOCC2)cc(OC)c1OC (configuration not stated)	9	-9	-18	-10	14	9	1.9	8.3	3	0.1
CC(C)C[C@@H]1NC(=O)[C@H](C(C)C)NC(=O)c2cc([N+](=O)[O-])cc(I)c2OCC[C@@H](C(N)=O)NC1=O	/	-9	-5	/	/	/	/	-5.1	5	0.6
Cn1c(-c2ccccc2)cc2onc(-c3ccccc3)c2c1=O	/	10	-15	/	-32	-36	-19	4.2	20	-13
CNC(=O)Nc1ccccc1C(=O)Nc1ccccc1	5	-3	/	-3	6	7	0.1	1.7	7	0.6
O=C(Nc1ccc(Nc2ccccc2)cc1)c1ccc(Br)cc1	-5	6	-1	6	1	3	-2.4	-3.8	16	-0.7
Cn1nnnc1SCC(=O)Nc1nc(-c2ccc(F)c(F)c2)cs1	-5	-2	-1	10	-20	-20	-5.5	8.6	3	0.9
O=c1c2ccccc2[nH]c(=S)n1CCC1=CCCCC1	6	12	-2	27	/	/	/	0.2	-10	-0.4
CCCCc1ccc(NC(=S)N2CCCC(CO)C2)cc1 (configuration not stated)	-5	-16	-13	-5	/	/	/	-4.8	-17	-0.7
COc1cc(NC(=O)CN2C(=O)NC(C)(CCC(C)C)C2=O)cc(OC)c1 (configuration not stated)	1	-1	-9	-6	/	/	/	-6.3	8	0.3
CC(Oc1ccccc1)C(=O)N1CCN(c2ccc(N3CCCCC3)nn2)CC1 (configuration not stated)	-5	/	/	8	12	7	2.1	0.0	-17	0.9
O=C(O)c1ccccc1C(=O)Nc1ccc(Oc2cccc3ccccc23)cc1	-38	/	/	-14	-57	-73	-18	/	2	/
CC12CC3(C)CC(C)(C1)CC(C(=O)NCc1cccnc1)(C2)C3	-4	-5	-8	-3	-20	-26	2.2	-1.6	3	1.4
O=C(Nc1ccc(F)cc1)Nc1ccccc1N1CCCCC1	-6	38	3	8	8	9	-0.3	-1.4	-4	0.4
CCOc1ccc(NC(=O)CN2C(=O)CSC2=O)cc1	23	-1	8	-28	/	/	/	-1.3	1	2.1
CSc1nc2ccc(NS(=O)(=O)c3c(Cl)cccc3Cl)cc2s1	15	-6	-11	-3	/	/	/	-5.9	14	0.0
O=C(C1CCC(CNS(=O)(=O)c2cccc3nsnc23)CC1)N1CCN(c2ccccn2)CC1 (configuration not stated)	4	-2	-3	18	-10	-7	-1.5	-2.7	23	0.3
CCN(CC)c1ccc2cc(-c3nc4ccccc4[nH]3)c(=O)oc2c1	33	?	-5	4	/	/	/	27*	-409	-7.7
CC1CCCC(NC(=O)C2CC(=O)N(Cc3ccccc3)C2)C1C (configuration not stated)	0	-2	2	-5	13	20	-2.2	3.3	1	-0.5
COc1ccc(CCN(C)C2CC(=O)N(c3ccccc3)C2=O)cc1OC (configuration not stated)	-2	-8	-10	-5	17	20	7.1	2.9	-3	0.9
O=C(O)CCSc1nnc(COc2cccc3ccccc23)n1-c1cccc(Cl)c1	?	-7	1	1	-53	-75	-22	-2.0	-4	0.3
CCOC(=O)[C@H]1[C@H]2COc3ccc(C)cc3[C@@H]2N2C(=O)CN(Cc3ccc(OC)cc3)C(=O)[C@@]12C	/	-4	-5	/	-12	-12	0.7	1.6	-5	0.9
COC(=O)CSc1nc(N)c2c3c(sc2n1)C(c1ccccc1)SC(c1ccccc1)C3 (configuration not stated)	3	69	-3	41	/	/	/	0.0	-19	16*
CSc1nnc(C)c(=O)n1COC(=O)/C=C/c1ccccc1	-2	-6	10	-7	-7	-2	-4.2	-1.7	-1	0.9
O=C(CCCOc1ccccc1)Nc1ccc(S(=O)(=O)N2CCOCC2)cc1	-1	-8	7	-7	/	/	/	1.6	-3	-0.8
COC(=O)C1=C(O)/C(=C/c2cccc(OC)c2O)N=C1C	6	-3	/	-12	8	-1	3.8	3.7	-5	-4.9
Cc1ccc(/C=C(\C#N)C(=O)NCCN2CCOCC2)cc1	-2	-6	1	-10	-3	7	-0.7	-1.4	1	0.5
CCOc1ccc(CCNC(=O)COC(=O)c2cccnc2OCC)cc1OCC	-9	-1	-2	-12	/	/	/	-4.6	-3	2.7
CCN(CC)S(=O)(=O)c1ccc(/C=C/C(=O)O)cc1	-10	/	1	-4	7	10	-1.5	1.5	7	1.2
Cc1ccc(C2(C)NC(=O)N(CC(=O)NCc3cccs3)C2=O)cc1 (configuration not stated)	?	-4	-6	-9	-1	-1	0.1	4.1	-2	-0.7
O=C(Cc1c(Cl)cccc1Cl)NC1=NCCS1	3	-3	3	-3	/	/	/	-3.3	-4	0.5
Oc1ccc(N2CCN(c3ncnc4sc(-c5ccccc5)cc34)CC2)cc1	100*	/	/	58*	-6	8	21	/	4	/
Cc1nc2ncnn2c(C)c1CCC(=O)N1CCN(C(=O)c2ccco2)CC1	-4	-4	0	0	/	/	/	-1.8	10	0.4
COC(=O)c1c(NC(=O)CN2C(=O)C(=O)N(CC(C)C)C2=O)sc(C)c1C	-7	1	1	-3	9	2	-2.2	3.6	8	-0.1
CC1CCc2c(sc3nc(CN4CCOCC4)nc(N4CCc5ccccc5C4)c23)C1 (configuration not stated)	18	-3	-3	16	/	/	/	1.6	6	-0.1
CC1(C)CC(=O)C/C(=N/Nc2nc3ccccc3s2)C1	-3	-1	/	-13	-9	-6	0.2	5.7	-18	0.0
COc1ccc(C2=NOC(Cn3nc(-c4ccccc4)cc3C(=O)O)C2)cc1 (configuration not stated)	/	-2	30	/	-9	-4	-11	3.9	-5	-0.1
COc1cc(OC)cc(C(=O)NC(C(=O)O)C23CC4CC(CC(C4)C2)C3)c1 (configuration not stated)	39	6	/	-2	-16	-27	-1.1	-1.0	3	0.5
COc1ccc(-c2nn(-c3ccccc3)cc2C(=O)O)cc1OC	-1	1	/	-4	3	0	0.0	1.1	0	0.3
O=C(CN1C(=O)NC(Cc2c[nH]c3ccccc23)C1=O)Nc1cccc(S(=O)(=O)N2CCCC2)c1 (configuration not stated)	0	-16	3	-2	-22	-21	2.8	-237	-17	0.7
CC(=O)c1ccc(OCc2cc(C(=O)N(C)Cc3cc(C)no3)no2)cc1	3	-8	-1	-19	-4	-10	-0.8	4.4	0	-0.2
O=C(c1nn(Cc2ccccc2)c(=O)c2ccccc12)N1CCN(C/C=C/c2ccccc2)CC1	12	12	-1	21	/	/	/	-4.7	-1	0.2
COc1ccc(OCc2cc(C(=O)N3CCCCCC3)no2)c(Cl)c1	-8	/	-17	16	-32	-33	-5.0	1.2	5	-1.3
O=C(COc1ccccc1)Nc1cc(S(=O)(=O)N2CCOCC2)ccc1N1CCCC1	/	-5	-8	/	0	0	1.7	2.3	-2	0.1
O=C(COc1cc(O)c2c(=O)c3ccccc3oc2c1)OCc1ccccc1	9	-4	-2	4	13	7	2.4	9.4	7	0.9
O=C(Nc1ccc(-c2nc3ccccc3o2)cc1)c1cccnc1	-6	19	-3	-1	/	/	/	4.1	21	-0.1
Nc1nc(-n2cnnc2)nn1-c1ccccc1	-5	-5	-13	-14	/	/	/	0.3	7	0.0
Cc1ccc(OCC(=O)N2N=C(c3ccc(Cl)cc3)CC2c2ccco2)c([N+](=O)[O-])n1 (configuration not stated)	-11	5	-1	26	-2	-3	3.7	5.0	0	-0.1
CCOC(=O)C1=C(C)N=C2SC(C)C(=O)N2C1c1cccc(F)c1 (configuration not stated)	4	-1	1	1	/	/	/	-0.8	12	0.1
COC(=O)Cn1c2ccccc2c2nc3ccccc3nc21	-7	-14	29	-13	2	10	1.8	-0.9	8	-2.9
O=C(NCCNC(=O)c1ccco1)c1ccc(Cl)c(Cl)c1	19	-2	0	-1	-2	-22	1.3	-3.8	5	-0.8

Rewritten with two lines to a compound: entries from further up
Below each SMILES – Calb FLC | Beta cell apopt | ALR inh | T cruzi repl | Ecoli rRNA inh | Ecoli rRNA inh OD600 | Ecoli rRNA inh RFP | LANA-H2A inh | Beta2AR agonist | Bfl-1 A1 inh
> CCN(CC)c1ccc2cc(-c3nc4ccccc4[nH]3)c(=O)oc2c1
  33 | ? | -5 | 4 | / | / | / | 27* | -409 | -7.7
> O=C(Nc1ccc(-c2nc3ccccc3o2)cc1)c1cccnc1
  -6 | 19 | -3 | -1 | / | / | / | 4.1 | 21 | -0.1
